NPYLR7 agonist = agonists of mosquito NPYLR7 receptor, primary screen, cell-based, Aedes aegypti, calcium fluorescence, mosquito biting behavior | Aedes aegypti neuropeptide Y-like receptor 7 (NPYLR7) | HEK293T NPYLR7/Galpha15, GCaMP6s calcium fluorescence | activation, % at 10 µM | actives 0.15% (n = 270,000) | AID 1259423, 2018; in the data active means activation above about 40%;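 further: 0% = vehicle and 100% = reference agonist at the receptor; some compounds past the cut are filed as inactive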
NPYLR7 agonist max-min = also measured in NPYLR7 agonist; calls as there; activation, %; measured here: Max-Min RFU normalised activation; some inactives read as strong as hits;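 span of the calcium signal over five minutes; 0% = vehicle and 100% = native peptide agonist; compound fluorescence can raise it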
* = called active by the depositor; & = joins results of further samples. Not all compounds are listed (hit frequency here may not be typical).

Compound,NPYLR7 agonist,NPYLR7 agonist max-min
Cc1cccc(N(CC(=O)N(C)Cc2csc(C(C)C)n2)S(C)(=O)=O)c1,0.1,-0.9
CN1C2=C(C(=O)CCC2)C(c2ccc(OS(=O)(=O)c3ccccc3)cc2)C2=C1CCCC2=O,-4.5,-8.2
CCCOc1ccc(C(=O)N2CCC(c3ccccc3)CC2)cc1,-3.3,-13.7
CN(Cc1ccc(C(F)(F)F)cc1)C(=O)/C=C/C(=O)N1CCOCC1,0.8,-0.6
CC1(C)CC[C@]2(C(=O)O)CC[C@]3(C)C(=CCC4[C@@]5(C)CC[C@H](O)C(C)(C)C5[C@H](O)C[C@]43C)C2C1 (some centres undefined),-5.2,-15.9
COc1ccc(-c2cc(CNC(=O)C3CC(=O)N(c4ccc(F)cc4)C3)no2)cc1 (centres undefined),3.6,1.2
Cn1nnnc1SCC(O)=C(C#N)c1nc2ccccc2[nH]1,0.5,1.1
COc1cc(OC)cc(C2c3cccn3CCCN2Cc2ccccn2)c1 (centres undefined),13.5,20.3
COc1cc(OC)cc(C(=O)N2CCC3(CCCN(Cc4cccc(C)c4)C3)C2)c1 (centres undefined),-1.2,-4.2
CCCc1[nH]n(C)c(=O)c1C1=C(N(C)Cc2ccccc2)C(=O)N(CC(C)C)C1=O,3.8,16.2
COc1ccc2nc(-c3cccc(NS(=O)(=O)c4ccccc4)c3)cn2n1,-9.0,-11.7
CCCc1ccccc1N1C(=O)CSC1c1cccc(NC(=O)COc2ccccc2)c1 (centres undefined),13.6,16.4
O=C1CCC(C(=O)N2CCc3ccccc3C2)CN1CCCc1ccccc1 (centres undefined),2.7,-0.5
O=c1nc(N2CCOCC2)nc(Nc2ccccc2)[nH]1,-9.6,-13.6
Fc1ccc(OCC2CC2)c(Br)c1,4.0,2.0
CC(C)N1CCNC(=O)C1CC(=O)NCc1cc2cc(Cl)ccc2[nH]1 (centres undefined),16.6,3.5
COc1cc(C(=O)N2CCN3C(=O)CN(C)C(=O)C3C2)c2ccccc2n1 (centres undefined),1.8,1.5
COc1ccc(Br)cc1/C=C(\C#N)c1nn(CCO)c(N)c1C#N,10.4,6.5
Cc1cc(C)nc(N/N=C\c2ccc3c(c2)OCO3)n1,19.0,8.2
C#CCn1c(O)c(N=NC(=O)CNC(=O)c2ccc(Cl)cc2)c2ccccc21,-4.8,-8.9
CCCc1cc(C(=O)N2CCC(n3nccc3NC(=O)C3CCOC3)CC2)n(C)n1 (centres undefined),-3.5,-5.7
Cc1ccc(-c2cnn3c(-n4nc(C)cc4C)cc(C)nc23)cc1,3.1,4.6
CC(NC(=O)c1cc(-c2ccccc2Cl)nn1-c1ccc(Cl)c(Cl)c1)c1ccccc1 (centres undefined),-5.3,4.7
CCCCN(C=O)c1c(CC)nc2ccc(C(=O)NCc3ccc(OC)cc3)cn12,12.0,1.1
CCn1ccnc1CN(C)Cc1cn[nH]c1-c1cc2ccccc2o1,10.8,6.4
CCN(CC)C(=O)Oc1ccc2c(ccn2Cc2c(F)cccc2Cl)c1-c1cc(Cl)cc(Cl)c1,9.8,6.7
O=C(NCc1cn[nH]c1-c1ccc(F)cc1)C1CCC(=O)N(Cc2ccccn2)C1 (centres undefined),12.8,13.0
CCOC(=O)C1(Cc2ccccc2C(F)(F)F)CCN(C(=O)C2CCCO2)CC1 (centres undefined),2.7&-3.7,2.9&-0.5
CCC(C)Cc1c(C)sc2nc(CSc3nnnn3C3CC3)[nH]c(=O)c12 (centres undefined),9.4,5.4
COc1ccc(C(=O)NC2CC2)c(OC2CCN(Cc3ccccc3Cl)CC2)c1,4.0,3.7
C=CC(=O)Nc1cccc(-c2cccc(-c3ccc(OC)cc3)n2)c1,-7.0,-9.8
COC(=O)CNC(=O)Cc1ccc(NC(=O)N2CCSCC2)cc1,5.6,5.1
Cc1cccnc1CN1CCN(Cc2cccn2-c2nccs2)CC1,27.4,13.6
CC(Nc1ccc(S(=O)(=O)C(F)(F)F)cc1)C(C)n1cncn1 (centres undefined),1.0,-1.5
O=c1[nH]c2sc(-c3ccccc3)cc2c(=O)n1-c1cccc(Cl)c1,1.4,1.5
CCn1c(SCc2ccc(CC(=O)OCC(=O)c3ccccc3)cc2)nnc1-c1c2c(nc3ccccc13)CCC2,-2.5,5.9
CC(=O)Nc1cncc(-c2cccc(C(=O)NC3CC3)c2)n1,-1.0,-0.1
CC(C(O)c1ccccc1)N(C)S(=O)(=O)c1ccc(Cl)cc1 (centres undefined),-1.0,-1.1
COCCN(Cc1csc(COc2cccc3ccccc23)n1)C(=O)c1cccc(Br)c1,-5.8,-2.8
COc1cccc(-c2nc(C=Nc3ccc(C(=O)N(C)c4ccccc4)cc3)c(O)o2)c1,-6.2,-11.4
COC(=O)CCCCCNC(N)=S,6.6,6.8
COc1ccc(C(C)C)cc1-c1nccnc1NCCc1c[nH]c2ccccc12,-4.2,-9.6
CCOC(=O)C1CCN(C(c2ccccc2Cl)C2Sc3nc(-c4ccco4)nn3C2=O)CC1 (centres undefined),-8.4,-10.0
O=C1CC(c2cccs2)CC2=Nc3ccccc3NC(c3coc4ccccc4c3=O)C12 (centres undefined),6.3,8.9
CCOc1ccc(N2CC(C#N)=C3c4cc(OC)c(OC)cc4CCN3C2)cc1,2.4,0.6
CCc1nc2ccc(C(=O)Nc3cc(-c4ccccc4)ccc3OC)cn2c1N(C)CCCc1ccccc1,12.9,5.2
COC(=O)c1ccc(C2C3=C(N=C4SCC(=O)N42)c2ccccc2CC3)cc1 (centres undefined),-0.4,26.4
NC(=O)Cc1csc(NC(=O)c2ccc3c(c2)CCCC3)n1,4.4,1.3
CCN(CC)C(=O)N1CCOc2c(O)cc(-c3cccc(Cl)c3)cc2C1,15.6,9.3
CCOc1ccc2nc(N3CCCC3C(=O)NCc3ccccc3-n3cncn3)nc(C)c2c1 (centres undefined),21.2,9.7
COC(=O)C1=C(C)NC(=O)NC1C1CC=CCC1 (centres undefined),-1.1,-0.4
CC(Cn1cccn1)NC(=O)CCc1nc(-c2ccccc2F)no1 (centres undefined),9.8,4.3
COc1ccc(Cn2c(SCc3ccccn3)nc3ccccc3c2=O)cc1,2.3,-2.4
Cc1ccc(C)c(CSc2c(C)cnc3c2c(=O)n(C)c(=O)n3C)c1,3.1,7.1
CCCC(C)NS(=O)(=O)c1cc(C(=O)NC2CC2)c(Cl)cc1Cl (centres undefined),3.2,10.4
Cc1ncc(C)c(N2CC[C@@H](N3CCN(CCc4ccccc4)CC3)[C@H](O)C2)n1,0.5,-3.9

Other results
Compound,NPYLR7 agonist,NPYLR7 agonist max-min
CCOc1cc(C(=O)Nc2c3c(nn2-c2ccccc2C)CS(=O)(=O)C3)cc(OCC)c1OCC,-4.6,-4.3
COc1cc(NC(=O)[C@@H](C)N2Cc3ccc(NCC(C)C)nc3C2=O)cc(OC)c1,4.8,0.7
Cc1nc(N2CCC(C(=O)N(C)Cc3cccc4cnccc34)CC2)nc2ccc(C(C)C)cc12,1.8,-2.4
CCNc1cc(NCCNC(=O)c2ccc(Br)o2)nc(C)n1,-0.7,-2.7
Cc1ccc(N2C(=O)CSC2c2cccc(NC(=O)c3ccc(C)c([N+](=O)[O-])c3)c2)c(C)c1 (centres undefined),1.3,2.2
O=S(=O)(c1ccccc1)c1ccccc1Nc1ccccc1,-0.3,-3.8
CC(C(=O)NC1CCS(=O)(=O)C1)N(C)Cc1ccc(Cl)cc1 (centres undefined),1.9,-2.1
O=C(NCCCn1cccn1)c1cn(Cc2ccc(Cl)cc2)nn1,-0.7,-7.7
CN(c1ncccc1CNC(=O)C1Cc2ccccc2O1)C1CCCCC1 (centres undefined),2.8,-0.5
Cc1nc(C(C)C)cc(N2CCCN(C(=O)c3ccco3)CC2)n1,-1.2,-9.0
CC(=O)Nc1ccc(Nc2ccc(-n3nc(C)c(C)c3C)nn2)cc1,-6.5,-13.3
NC(=O)c1cccc(NC(=O)Cc2c(F)cccc2Cl)c1,8.7,6.3
CCOc1ccc(-c2nc(C(N)=O)c3[nH]c(=O)n(-c4ccc(OC)c(OC)c4)c3n2)cc1,-4.3,-7.2
CCN(CC)c1ccc(/C=C(\C#N)c2nn(CCO)c(N)c2C#N)cc1,16.2,8.3
CN(CC(=O)N1CCN(Cc2ccc(C#N)cc2)CC1)S(=O)(=O)c1cccs1,6.0,11.5
Clc1ccc(-c2noc3c2CN(CCn2cc(Cl)cn2)CC3)cc1,74.9*,54.3*

(more compounds)
Order of values – NPYLR7 agonist	NPYLR7 agonist max-min
> O=C1NC(=S)N/C1=C\c1ccc([N+](=O)[O-])o1
→ 0.4	-0.9
> COc1ccccc1-c1cc(C(=O)NCc2ccccn2)n2nc(-c3ccccc3)cc2n1
→ 3.8&-5.1	5.6&7.1
> O=C(O)c1cn(Cc2ccccc2)cc2c(=O)n(-c3ccccc3)nc1-2
→ -3.2	-2.8
> COc1ccc(-c2ccc(SCCN3CCCCC3)nn2)cc1
→ 11.6	3.0
> COc1ccccc1NC(=O)c1c(N)c(C(=O)c2ccccc2)n2ccccc12
→ -1.4	-6.1
> O=C(CSc1nnc(-c2cc3ccccc3[nH]2)n1-c1ccccc1)N1CCNC1=O
→ -2.8	-3.6
> CC1CN(CC2CCN(C(=O)C(NC(=O)c3ccccc3Cl)C(C)C)CC2)CC(C)O1 (centres undefined)
→ 1.3	-1.9
> O=C(NCC1CCN(c2nc(Cc3ccc(Cl)cc3)ns2)CC1)C(Cl)c1ccccc1 (centres undefined)
→ -2.6	5.2
> Cc1cc(C(=O)NC2C=CS(=O)(=O)C2)c2ccc(F)cc2n1 (centres undefined)
→ 2.5	0.5
> CC(C)Oc1cccc(/C=C/C(=O)NC2CCC(=O)NC2)c1 (centres undefined)
→ 11.9	4.0
> CCCN1C(=O)C2(CCCCC2)NC1c1cnn(CC)c1 (centres undefined)
→ -20.8	-21.4
> O=c1ccn(CN(Cc2cccs2)C2CC2)c2c(Br)cccc12
→ 3.9	3.5
> CCCOc1ccc(C(=O)N2CCC(N3CCNC3=O)CC2)cc1OCCC
→ 11.4	7.4
> CCOCCCNC(=O)c1cc(NC(=O)C(Cl)Cl)ccc1N1CCN(c2ccccc2OC)CC1
→ -3.7	6.7
> C[N+](C)(C)CCCCCC[N+](C)(C)C
→ -11.7&-3.6&-1.4&-0.9&-6.3	-14.1&-8.0&-4.7&-28.3&-17.9
> CCOc1cccc2sc(N(CCCN(C)C)C(=O)c3ccc(Br)s3)nc12
→ -0.1	-2.4
> COCCn1c(=NC(C)=O)c(C#N)cc2c(=O)n3cccc(C)c3nc21
→ 3.3	0.3
> O=C(C1CC1)N(Cc1nccn1Cc1ccc(F)cc1)C1CC1
→ 7.0	13.0
> Cc1cc(C)n(CCCNc2nc3ccccc3o2)n1
→ 5.6	3.6
> CC(=O)OCC(=O)N1CCN(c2nc3ccccc3nc2C)CC1
→ 13.4	3.2
> CC(=O)Nc1ccc(Cl)c(C(=O)NCC(c2cccs2)N(C)C)c1 (centres undefined)
→ 9.4	-0.3
> Cc1nn(CC(=O)NCc2ccco2)c(C)c1[N+](=O)[O-]
→ -1.9	-2.1
> O=C(CN1C(=O)c2ccc([N+](=O)[O-])cc2C1=O)Nc1ccccc1C(=O)O
→ -4.9	-11.0
> CCc1cnc(N2CCC(Cc3nnc(SC)n3C)CC2)nc1
→ 36.1	30.6
> Cc1cc(-n2c(C)cc(C(=O)CSc3nc(N)nc(N)n3)c2C)no1
→ -2.3	-5.2
> O=C(CN1C(=O)C(Oc2ccccc2)C1c1ccccn1)N1CCN(CCO)CC1 (centres undefined)
→ 2.3	5.1
> CCS(=O)(=O)Nc1ccc(-c2ccc(S(=O)(=O)CC)nn2)cc1
→ 6.7	2.8
> Cc1cc(N(C)C)nc(Nc2ccc(NC(=O)C3CCCCC3)cc2)n1
→ 7.4	2.4
> Cc1csc(NC(=O)CSc2c(C(C)C)cnc3c2c(=O)n(C)c(=O)n3C)n1
→ 6.1	12.3
> Cc1cc(NC(=O)CSc2nnc(N3CCCC3)n2-c2cccc(Cl)c2)on1
→ 2.1	0.3
> O=C(NCc1ccc(O)cc1)N1CCCC1Cc1ccccc1 (centres undefined)
→ 3.4	-1.3
> CC(C)Nc1ccc(C(=O)N[C@H](CO)Cc2ccccc2)cn1
→ -12.4	-20.8
> Cc1nnc(SCc2cc(=O)n3ccsc3n2)s1
→ -0.7	5.8
> FC(F)Oc1ccc(CNCc2cccnc2N2CCOCC2)cc1
→ 18.4	7.8
> NC(=O)c1cccc(CNC(=O)c2ccc(Cl)s2)c1
→ -2.2	-3.1
> CCCCCCCC(=O)N(CCOC)CC(=O)N(Cc1ccco1)Cc1cccn1C
→ -7.0	0.3

High-throughput results from PubChem.
